Cruzain Triton: qHTS Assay for Promiscuous and Specific Inhibitors of Cruzain (with detergent); purified cruzain, Z-FR-AMC fluorescence, 0.01% Triton; 0.43% of 200,000 active; AID 1478, 2009; Cruzipain (Trypanosoma cruzi), P25779; Potency, µM, inactives show max response, negative = inhibition, usual class: inhibitors; active = well fitted curve in the direction sought with a large enough effect; inconclusive = small, poorly fitted or top-dose-only effect, or another doubt; inactive = no such curve, though single readings can be large; an effect the other way counts as inactive or inconclusive;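 note: plate controls were neutral wells for no effect and buffer without enzyme for full effect; nearly all actives have a fitted effect of over 40% in size; top concentration of the series not given in the record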
Target sequence (P25779 123-467 limits assumed): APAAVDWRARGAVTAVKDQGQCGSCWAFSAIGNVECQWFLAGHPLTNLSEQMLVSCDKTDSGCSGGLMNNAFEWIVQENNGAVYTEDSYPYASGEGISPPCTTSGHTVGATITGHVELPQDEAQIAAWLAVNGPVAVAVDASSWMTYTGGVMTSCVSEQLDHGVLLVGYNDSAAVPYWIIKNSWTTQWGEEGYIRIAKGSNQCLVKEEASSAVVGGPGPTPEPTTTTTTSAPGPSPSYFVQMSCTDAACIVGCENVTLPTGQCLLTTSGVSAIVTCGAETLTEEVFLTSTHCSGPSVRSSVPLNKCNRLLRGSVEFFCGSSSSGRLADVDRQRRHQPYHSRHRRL
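Cysteine protease activity tested under reducing, mildly acidic conditions (100 mM sodium acetate pH 5.5, 5 mM DTT) plus 0.01% Triton X-100. Cruzain 1.5 nM; substrate Z-FR-AMC 2 uM; 15 min compound preincubation at room temperature.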
Marburg entry inh: qHTS for inhibitors of binding or entry into cells for Marburg Virus; AID 540276, 2011; Marburg virus pseudotyped entry inhibition, cell reporter; control for the full effect not named in the record; about a third of the inactives were read at about 46 µM; 1.8% of 300,000 active; Potency, µM (top dose mostly 37.8 µM), for inactives: at the top dose activity change, negative = inhibition, most hits filed as inhibitors; active = well fitted inhibition curve with a large enough effect; inconclusive = small, poorly fitted or top-dose-only effect, or effect the other way; inactive = flat fitted curve, though single readings scatter; tested in HEK293 cells; about a fifth of its hits are not listed in these tables; note: % is set by controls: 0 for no effect and ±100 for the full control effect; luciferase read-out
SARS PLP yeast: qHTS of Yeast-based Assay for SARS-CoV PLP. S. cerevisiae expressing SARS-CoV PLpro, growth rescue; control for the full effect not named in the record. Potency, µM (top dose mostly 32.9 µM), without a hit: at the highest dose activity, positive = growth rescue. 0.19% of 330,000 active; note: 0% is about no effect; nearly all actives have a fitted effect of over 55% in size; growth read by luminescence after 48 h
NS1 function inh: qHTS Assay for Inhibitors of Influenza NS1 Protein Function; Potency, µM (titrated, usually from 46.1 µM), for inactives: top-dose activity, positive = more growth; S. cerevisiae slowed by influenza A NS1, growth recovery by OD600; 0.4% of 270,000 active; AID 2326, 2010; note: actives are rising curves; nearly all actives have a fitted effect of over 50% in size
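Recovery from NS1-induced slow growth read by OD600 in budding yeast switched to galactose assay medium (pH 6.0, -URA) at 1:100 dilution. Compound 23 nl per well; the matching strain lacking NS1 serves as control.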
2A StopGo: High Throughput Screening for Foot and Mouth Disease Virus Antivirals; human cells with a luciferase reporter of 2A StopGo recoding; control for the full effect not named in the record; Potency, µM (highest dose often 57.9 µM), without a hit: at the top dose signal change, negative = less light; 1.2% of 410,000 active; AID 1159524, 2015; active = well fitted falling curve with a large enough effect; inconclusive = small, poorly fitted or top-dose-only effect; inactive = no such curve, though single readings can be large or run the other way; tested in HEK293T cells; note: % is set by controls: 0 for no effect and ±100 for the full control effect; nearly all actives have a fitted effect of over 45% in size; luciferase light after 4 h
Lassa entry inh: qHTS for Inhibitors of binding or entry into cells for Lassa Virus; Lassa virus pseudotype entry inhibition, cell reporter; control for the full effect not named in the record; AID 540256, 2011; Potency, µM (doses to about 37.9 µM), inactives show at the highest dose activity change, negative = inhibition, actives largely listed as inhibitors; 1.2% of 300,000 active; active means well fitted inhibition curve with a large enough effect; inconclusive means small, poorly fitted or top-dose-only effect, or effect the other way; inactive means flat fitted curve, though single readings scatter; tested in HEK293 cells; note: % is set by controls: 0 for no effect and ±100 for the full control effect; nearly all actives have a fitted effect of over 50% in size; luciferase read-out
Cruzain noTriton: qHTS Assay for Promiscuous and Specific Inhibitors of Cruzain (without detergent) | purified cruzain, Z-FR-AMC fluorescence, no detergent | 2.3% of 200,000 active | Potency, µM, for the others: max response, negative = inhibition, most hits filed as inhibitors | Cruzipain (Trypanosoma cruzi), P25779 | AID 1476, 2009; active = well fitted curve in the direction sought with a large enough effect; inconclusive = small, poorly fitted or top-dose-only effect, or another doubt; inactive = no such curve, though single readings can be large; an effect the other way counts as inactive or inconclusive;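 note: plate controls were enzyme without inhibitor for no effect and buffer without enzyme for full effect; nearly all actives have a fitted effect of over 40% in size; top concentration of the series not given in the record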
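Detergent-free condition (0.00005% Triton X-100) in acetate buffer pH 5.5 with DTT. 1.5 nM enzyme and compound were pre-mixed 15 min, then 2 uM Z-FR-AMC substrate added; reaction progress from fluorescence change between first and third reads (60 s).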
RE007 growth inh: qHTS Assay for Inhibitors of the HIV-1 protein Vpr; S. pombe RE007 Vpr strain, BacTiter-Glo ATP luminescence, 24 h; control for the full effect not named in the record; Potency, µM (top dose mostly 92.2 µM), for inactives: at the highest dose activity change, negative = less growth; 0.21% of 360,000 active; AID 651644, 2012; active = well fitted falling curve with a large enough effect; inconclusive = small, poorly fitted or top-dose-only effect; inactive = no such curve, though single readings can be large or run the other way;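 note: % is set by controls: 0 for no effect and ±100 for the full control effect; nearly all actives have a fitted effect of over 50% in size; the assay follows cell death caused by Vpr and the record does not say whether a fall means rescue or toxicity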
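Fission yeast strain RE007, carrying one chromosomally integrated HIV-1 vpr copy, was seeded at OD 0.01 in PMG+AL medium with 23 nL pinned compound. After 24 h at 30 °C and 99% humidity, viability was read by BacTiter-Glo luminescence.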
* = called active by the depositor; u = inconclusive; x = no result given; [ ] = another dose, or the depositor's remark. Unless noted, calls come from the whole dose curve; as a rule, active means well fitted rising curve with a large enough effect; inconclusive means small, poorly fitted or top-dose-only effect; inactive means no such curve, though single readings can be large or run the other way. Potency is the fitted concentration of half-maximal effect.

1	Cc1cc(NC(=O)CN2CCCC(C)C2)no1 (stereo not given)
2	COC(=O)c1ccc(CNC(=O)COC(=O)CCN2C(=O)C3CC=CCC3C2=O)cc1 (stereo not given)
3	Cc1c2cnn(CC(=O)O)c(=O)c2c(C)n1Cc1cccc(Cl)c1
4	CC(=O)c1cccc(CN2CCCC(C(=O)Nc3cccc(-n4cccn4)c3)C2)c1 (stereo not given)
5	COCC(=O)n1nc(-c2ccc(Cl)cc2)nc1NCc1ccc(F)cc1
6	CCN1C(=O)/C(=C/N2CC(C)CC(C)C2)SC1=S (stereo not given)
7	O=C(Nc1nc2ccsc2c(=O)s1)c1ccc(Cl)cc1
8	CN(C)CCCN(Cc1ccccc1)C(=S)Nc1ccc(F)c(Cl)c1

assay / compound	1	2	3	4	5	6	7	8
Cruzain Triton	x	x	-2.3%	x	-8.9%	-2.3%	x	x
Marburg entry inh	-16%[46.1 µM]	21%[46.1 µM]	-1%[46.1 µM]	u	u	1%	x	u
SARS PLP yeast	1%	2%	x	u	-1%	7%	-1%	3%
NS1 function inh	1%	x	x	8%	-4%	6%	-4%	x
2A StopGo	-9%	-17%	-18%	u	29%	-2%	0%	-8%
Lassa entry inh	-10%	3%	-1%[46.1 µM]	-16%	0%	5%	x	u
Cruzain noTriton	x	x	5%	x	-18%	-1%	x	x
RE007 growth inh	5%	-2%	x	0%	-3%	21%	-1%	7%

9	Brc1ccc(CNc2ccc3ncccc3c2)cc1
10	COc1ccc(S(=O)(=O)N2CCOCC2)cc1C(=O)Nc1ccon1
11	Cc1ccc(NCc2nnc(SCC(N)=O)n2CCc2ccccc2)cc1
12	CCOC(=O)N1CCC(c2nc(C)sc2C(=O)O)CC1
13	Cc1cc(C(=O)CN2C(=O)C(=O)N(Cc3ccccc3)C2=O)c(C)n1-c1ccc2c(c1)OCCO2
14	Cc1nnc(N2CCOCC2)c2nn(-c3ccccc3)c(C)c12
15	Cc1ccccc1-c1nc(CN2CCCC2c2ccc(F)cc2)c(C)o1 (stereo not given)
16	O=C(Nc1ccc2c(c1)OCCO2)NC12CC3CC(CC(C3)C1)C2

assay / compound	9	10	11	12	13	14	15	16
Cruzain Triton	x	9.2%	1.7%	5.5%	x	-4.7%	x	2.5%
Marburg entry inh	x	-20%	-1%	10%	u	-24%	u	u
SARS PLP yeast	-11%	18%	6%	11%	1%	-17%	0%	-4%
NS1 function inh	-57%	3%	-1%	u	x	-10%	5%	-36%
2A StopGo	8%	-6%	x	17%	-17%	-17%	-15%	37%[activator]
Lassa entry inh	x	-7%	x	0%	-26%	u	16%[46.1 µM]	-12%
Cruzain noTriton	x	6%	10%	-10%	x	-7%	x	-4%
RE007 growth inh	-24%	-12%	x	14%	-9%	5%	5%	41%

17	COC(=O)C(Cc1ccc(O)cc1)NC(=O)CCNC(=O)c1ccco1 (stereo not given)
18	COc1cccc(COC(=O)CCNC(=O)c2ccc(Br)cc2)c1OC
19	Cc1ccc(CN2[C@@H](c3ccccc3)COCCS2(=O)=O)cc1
20	COCCNC(=S)N=Nc1c(O)[nH]c2c(C)cc(C)cc12
21	COc1ccc(C(=O)NC(=O)COC(=O)CCS(=O)(=O)c2ccc(C)cc2)cc1
22	COc1ccc(N/N=C(/C(C)=O)N2CCCc3ccccc32)cc1
23	COc1cc(/C=C2\C=CC(=O)O2)cc(OC)c1
24	COC(=O)c1ccc(COC(=O)C(NC(=O)Cc2ccccc2)C(C)C)cc1 (stereo not given)

assay / compound	17	18	19	20	21	22	23	24
Cruzain Triton	x	x	x	x	x	x	x	x
Marburg entry inh	4%[46.1 µM]	26%	x	-13%[46.1 µM]	u	-9%	2%	1%[46.1 µM]
SARS PLP yeast	1%	0%	-2%	-4%	-2%	0%	-3%	-2%
NS1 function inh	6%	x	-33%	1%	x	-42%	-2%	x
2A StopGo	1%	-7%	29%	4%	-13%	-13%	3%	1%
Lassa entry inh	-5%	-7%	x	-4%	u	-2%	3%	21%
Cruzain noTriton	x	x	x	x	x	x	x	x
RE007 growth inh	30%	3%	10%	6%	0%	63%	-6%	-6%

25	COc1cc(NS(=O)(=O)c2cc(Br)cc3c2N(C(C)=O)C(C)C3)cc(OC)c1 (stereo not given)
26	COc1ccc(-n2c(-c3ccc(OC)c(OC)c3)n[nH]c2=S)cc1
27	Cc1cc2n(n1)C(c1cn(-c3ccccc3)nc1C)Nc1ccccc1-2 (stereo not given)
28	COC(=O)CSc1nc(N)nc(C)c1Br
29	O=C(Nc1ccccc1-c1nnn(CC(=O)N2CCc3ccccc3C2)n1)C1CCC1
30	NC(=O)CNC(=O)[C@@H]1CC2(CC(c3ccc(Cl)cc3)=NO2)CN1C(=O)c1ccc(Br)cc1 (stereo not given in full)
31	O=C(NC1CCCCCCC1)c1cccc(Cl)c1
32	O=C(CNCCC1=CCCCC1)Nc1ccccc1N1CCCCCC1

assay / compound	25	26	27	28	29	30	31	32
Cruzain Triton	-3.7%	x	-1.2%	0.9%	6.1%	-2.7%	x	x
Marburg entry inh	x	x	10%	u	-2%	0%	x	x
SARS PLP yeast	x	7%	12%	-1%	x	3%	-3%	1%
NS1 function inh	x	-9%	-35%	0%	-6%	11%	-11%	-14%
2A StopGo	6%	-2%	-4%	23%	-29%	16%	54%[activator]	u
Lassa entry inh	u	x	19%	u	-14%	x	x	x
Cruzain noTriton	-12%	x	u	-10%	-1%	u	x	x
RE007 growth inh	x	-3%	-22%	-18%	18%	34%	-29%	9%

Reprinted from the part before: three entries, then new ones.
30	NC(=O)CNC(=O)[C@@H]1CC2(CC(c3ccc(Cl)cc3)=NO2)CN1C(=O)c1ccc(Br)cc1 (stereo not given in full)
31	O=C(NC1CCCCCCC1)c1cccc(Cl)c1
32	O=C(CNCCC1=CCCCC1)Nc1ccccc1N1CCCCCC1
33	O=C(Nc1ccccc1C(=O)N1CCCC1)c1ncoc1-c1cccc(Cl)c1
34	CCCCOc1cccc(C2(C(=O)O)CCCC2)c1
35	Cc1ccc(-n2cc(CNCCCn3cccn3)c(-c3cccc(C)c3)n2)cc1
36	Cc1ccc(CNC(=O)Cn2c(=O)c3sccc3n(Cc3ccc([N+](=O)[O-])cc3)c2=O)cc1
37	O=[N+]([O-])c1cc(C(F)(F)F)ccc1Sc1ccccn1
38	C/C(=N/NC(=O)CCc1ccccc1)c1ccc2c(c1)OCO2
39	CCCN1CCC(=O)N([C@H](COc2ccccc2)CC(C)C)CC1
40	Cn1c(C(=O)NCCN2CCc3ccccc3C2)cc2c(=O)n(C)c3ccccc3c21

assay / compound	30	31	32	33	34	35	36	37	38	39	40
Cruzain Triton	-2.7%	x	x	x	-0.5%	x	-3.1%	-8.3%	x	x	25µM*
Marburg entry inh	0%	x	x	u	2%	u	-28%	4%	u	x	x
SARS PLP yeast	3%	-3%	1%	-15%	-4%	-5%	-8%	-5%	0%	-4%	-11%
NS1 function inh	11%	-11%	-14%	-14%	-111%	6%	u	4%	-3%	-2%	-9%
2A StopGo	16%	54%[activator]	u	-12%	-17%	-29%	-18%	-18%	-25%	-2%	-14%
Lassa entry inh	x	x	x	-26%	1%	u	u	8%	u	x	x
Cruzain noTriton	u	x	x	x	2%	x	9%	5%	x	x	u
RE007 growth inh	34%	-29%	9%	-1%	3%	5%	-14%	u	-6%	0%	5%

41	Cc1cccc(-n2c(=S)[nH]c3c(oc4ccccc43)c2=O)c1
42	CCN1CCN(Cc2c(O)ccc3cc(-c4ccc(OC)cc4)c(=O)oc23)CC1
43	Cc1c(-c2ccccc2)[n+](=O)c2c(n1[O-])CCCCC2
44	Cc1cc(C(=O)N/N=C/c2cccnc2)cs1
45	CN(C)CCCN(C(=O)c1ccc(S(=O)(=O)N2CCc3ccccc3C2)cc1)c1nc2ccc(F)cc2s1
46	COc1ccc(CN(C(=O)/C=C/c2ccccc2Cl)C2CCS(=O)(=O)C2)cc1 (stereo not given)
47	O=C(C1CCCN(Cc2cccc(F)c2)C1)N1CCCCC1 (stereo not given)
48	CNC(=S)NNC(=O)c1sccc1OCc1ccc(Cl)cc1Cl

assay / compound	41	42	43	44	45	46	47	48
Cruzain Triton	-4.8%	-3.9%	-1.6%	-3.2%	x	x	2.7%	4.1%
Marburg entry inh	0%	x	u	u	u	x	10%	-7%
SARS PLP yeast	19%	x	-7%	4%	-1%	-1%	0%	-2%
NS1 function inh	u	x	14%	-9%	-18%	20%	-6%	-2%
2A StopGo	43%[activator]	20%	-3%	18%	-23%	11%	7%	-12%
Lassa entry inh	21%	-1%[46.1 µM]	0%	13%	u	x	-3%	u
Cruzain noTriton	25%	-17%	-11%	-9%	x	x	-15%	-3%
RE007 growth inh	x	x	4%	-23%	5%	-4%	-11%	1%

49	Cc1ccccc1-c1nc(CS(=O)(=O)CC(=O)NCCCN2CCCC2=O)c(C)o1
50	Cc1ccc(NC(=O)CNC(=O)Cc2cccc3ccccc23)c(O)c1
51	Cc1cccc(OC(=O)c2sc3ncn(C)c(=O)c3c2C)c1
52	CCCCCCCCNCCS(=O)(=O)NN1CCOCC1
53	Clc1ccc2c(NNc3ccccc3Cl)ccnc2c1

assay / compound	49	50	51	52	53
Cruzain Triton	2.2%	x	x	x	4.1%
Marburg entry inh	-19%	0%[46.1 µM]	6%	u	-21%
SARS PLP yeast	3%	-8%	-17%	u	4%
NS1 function inh	-11%	x	x	x	-7%
2A StopGo	-16%	20%	11%	-6%	-3%
Lassa entry inh	-1%	-12%	21%	x	3%
Cruzain noTriton	3%	x	x	x	0%
RE007 growth inh	20%	14%	-5%	8%	1%

Screening results deposited in PubChem by National Center for Advancing Translational Sciences (NCATS).
